# Screening results as filed in PubChem BioAssay.
# TRPML1 blocker = human mucolipin-1 channel inhibition; TRPML1-inducible cells, Ca2+ dye fluorescence, FDSS; active compounds read low; inhibition of EC80 agonist-evoked calcium signal; AID 624415; activity change, negative = inhibition, % (no concentration beside the values); 390,000 compounds, 0.02% hits; in the data active means activity change below about -50%; inconclusive means about -30% to -50%; inactive means above about -30%;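 note: stimulus is agonist 54-4 at its EC80 concentration; % is set by controls: 0 for no effect and ±100 for the full control effect; compound concentration not given in the record; the text of the record puts the active cut at -80%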
# Target sequence (Q9GZU1 whole entry, looked up): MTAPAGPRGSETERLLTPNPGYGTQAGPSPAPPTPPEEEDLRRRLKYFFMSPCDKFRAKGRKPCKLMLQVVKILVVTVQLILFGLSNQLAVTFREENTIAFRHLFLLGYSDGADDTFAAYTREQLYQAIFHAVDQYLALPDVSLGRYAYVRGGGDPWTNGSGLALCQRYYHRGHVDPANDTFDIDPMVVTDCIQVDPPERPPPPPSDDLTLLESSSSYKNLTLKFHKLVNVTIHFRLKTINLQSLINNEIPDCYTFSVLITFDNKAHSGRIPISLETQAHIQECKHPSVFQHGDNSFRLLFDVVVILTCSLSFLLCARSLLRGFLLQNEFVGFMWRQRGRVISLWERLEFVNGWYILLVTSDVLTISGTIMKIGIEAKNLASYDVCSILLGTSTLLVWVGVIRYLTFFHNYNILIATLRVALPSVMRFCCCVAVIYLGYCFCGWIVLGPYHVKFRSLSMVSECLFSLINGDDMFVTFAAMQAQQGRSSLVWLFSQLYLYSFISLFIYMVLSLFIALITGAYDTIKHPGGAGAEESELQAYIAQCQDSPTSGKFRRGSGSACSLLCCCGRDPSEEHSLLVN
#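 TRPML1-DL cells, Tet-induced overnight (~16 h, 37 °C) at 1,500 cells/well, were loaded with Ca8 no-wash dye plus quencher for 45-90 min at room temperature. Compounds were pinned during FDSS kinetic reading; agonist 54-4 at EC80 (4 uM final) then added.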
# Six1-Eya2 inh = inhibitors of human Six1/Eya2 interaction; Q15475+O00167; AlphaScreen GST-Six1/His-Eya2 binding, biochemical; active compounds read low; control for the full effect not named in the record; activity change, % (test concentration not listed); 360,000 compounds, 0.56% hits; in the data active = activity change below about -65%; inconclusive = about -30% to -65%; inactive = above about -30%; note: % is set by controls: 0 for no effect and ±100 for the full control effect
#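 AlphaScreen with GST-Six1 and His-Eya2 (5X mix: 250 nM and 500 nM), glutathione donor and nickel acceptor beads; buffer 50 mM Tris pH 8.0, 300 mM NaCl, 1 mM TCEP; 1 h at 37 C in the dark.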
# TRPML1 ag = human mucolipin-1 channel agonism; Q9GZU1; activation, % (no concentration beside the values); TRPML1-expressing cells, Ca2+ dye fluorescence, FDSS; host cell line not named in the record; reference of the full effect not given here; 410,000 compounds, 0.12% hits; in the data active = activation above about 50%; inconclusive = about 30% to 50%; inactive = below about 30%; note: 0% is about no effect; the text of the record puts the active cut at 80%
#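 Kinetic FDSS Ca2+ read in Tet-induced TRPML1-DL cells (ABD Ca8 dye plus quencher, 45-90 min RT loading): baseline, then compound, then 110 s agonist window; EC80 agonist 54-4 at 4uM final added afterwards for a 110 s antagonist window.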
# PINK1 modulator = modulators of PINK1 expression. PINK1 immunofluorescence, high-content cytometry, 24 h. Potency, µM (top dose mostly 76.6 µM), without a hit: at the highest dose activation (PINK1 increase), actives largely listed as activators. 410,000 compounds, 0.2% hits. AID 624263; active = well fitted activation curve with a large enough effect; inconclusive = small, poorly fitted or top-dose-only effect; inactive = flat fitted curve, though single readings scatter; cell line not stated here;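 note: potency is the fitted concentration of half-maximal effect; % of control where 0% means no effect; nearly all actives have a fitted effect of over 65% in size; a mitochondrial uncoupler was the plate control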
#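 A stable cell line was treated with compounds at 5 concentrations for 24 hours, with CCCP as control. PINK1 levels and mitochondrial localization were measured by immunofluorescence with mitochondrial, cell and nuclear markers after fixation, read by laser-scanning cytometry.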
# D2 ag = activates the human D2 dopamine receptor. P14416. DiscoveRx PathHunter D2 beta-arrestin, luminescence, 90 min; 100% = 57 uM dopamine signal. activation, % (no concentration beside the values). 360,000 compounds, 0.084% hits; in the data active = activation above about 40%; inconclusive = about 15% to 40%; inactive = below about 15%; note: compound concentration not given in the record; the text of the record calls up to 30% inactive
# Target sequence (P14416 whole entry, looked up): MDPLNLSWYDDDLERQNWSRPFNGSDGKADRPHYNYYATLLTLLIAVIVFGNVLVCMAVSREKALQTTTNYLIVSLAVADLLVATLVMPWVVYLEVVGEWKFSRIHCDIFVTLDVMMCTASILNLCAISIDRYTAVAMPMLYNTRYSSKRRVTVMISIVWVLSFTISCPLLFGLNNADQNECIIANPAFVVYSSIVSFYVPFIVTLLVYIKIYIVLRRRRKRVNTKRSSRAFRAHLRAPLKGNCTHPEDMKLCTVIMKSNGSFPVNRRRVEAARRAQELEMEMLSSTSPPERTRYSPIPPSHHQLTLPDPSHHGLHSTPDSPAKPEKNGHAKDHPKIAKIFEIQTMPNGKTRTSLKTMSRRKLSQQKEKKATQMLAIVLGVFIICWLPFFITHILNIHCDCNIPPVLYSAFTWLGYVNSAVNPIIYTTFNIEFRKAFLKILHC
#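 Agonist mode: compounds alone added to overnight-plated D2 PathHunter cells for 90 min at 37 C, with 57 uM final dopamine (EC100) defining full response. Beta-arrestin recruitment detected by chemiluminescent reagent, read after 1 h at ambient temperature.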
# CtBP-E1A blk = blocks the CtBP interaction with E1A. activity change, % (test concentration not listed). AlphaScreen GST-E1A/His-CtBP binding, 1536-well; active compounds read low; control for the full effect not named in the record. AID 651724. 340,000 compounds, 0.49% hits; in the data active means activity change below about -65%; inconclusive means about -30% to -65%; inactive means above about -30%; note: % is set by controls: 0 for no effect and ±100 for the full control effect
#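 Homogeneous bead-based format: GST-tagged E1A captured on glutathione donor beads, His-tagged CtBP on nickel acceptor beads; compounds precede bead addition by 2 h at 37 °C.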
# An asterisk follows results filed as active; ? = inconclusive; · = not tested or not shown; [ ] = dose if it differs, or a comment.
# Start of the data: the first 5 records, ahead of the listing:
SMILES,TRPML1 blocker,Six1-Eya2 inh,TRPML1 ag,PINK1 modulator,D2 ag,CtBP-E1A blk
O=C(Nc1ccc(Cl)c(S(=O)(=O)N2CCOCC2)c1)c1cc(-c2ccccn2)nc2ccccc12,12,-9,0.5,0.0%,3.1,-18
CC(=O)NCCc1nc2ccccc2n1Cc1cc(C)ccc1C,2,7,1.5,1.7%,-0.3,1
CC1(C)CC(=O)C(Sc2ccccc2C(=O)O)=C(O)C1,0,2,0.2,0.9%,-8.0,-16
COC(=O)c1ccccc1S(=O)(=O)N1CCC(C(=O)OCc2cccc(OC)c2OC)CC1,8,-1,-0.4,-0.3%,-9.6,5
O=C(N[C@H](CO)Cc1ccccc1)c1ccco1,56,-5,-0.6,-1.4%,-0.5,2

# The list itself, previewed entries included:
SMILES,TRPML1 blocker,Six1-Eya2 inh,TRPML1 ag,PINK1 modulator,D2 ag,CtBP-E1A blk
O=C(Nc1ccc(Cl)c(S(=O)(=O)N2CCOCC2)c1)c1cc(-c2ccccn2)nc2ccccc12,12,-9,0.5,0.0%,3.1,-18
CC(=O)NCCc1nc2ccccc2n1Cc1cc(C)ccc1C,2,7,1.5,1.7%,-0.3,1
CC1(C)CC(=O)C(Sc2ccccc2C(=O)O)=C(O)C1,0,2,0.2,0.9%,-8.0,-16
COC(=O)c1ccccc1S(=O)(=O)N1CCC(C(=O)OCc2cccc(OC)c2OC)CC1,8,-1,-0.4,-0.3%,-9.6,5
O=C(N[C@H](CO)Cc1ccccc1)c1ccco1,56,-5,-0.6,-1.4%,-0.5,2
CCOC(=O)c1ccc(-c2ccc(CO)o2)cc1,-6,-3,-1.0,6.4%,-1.7,1
Cc1ccc(-n2ncc(C(=O)NCCN3CCc4ccccc4C3)c2C2CCN(C(=O)OC(C)(C)C)CC2)cc1C,-1,·,0.8,-1.5%,·,·
CCOc1ccc2c(c1)-c1c(ssc1=S)C(C)(C)N2C,27,?,1.0,1.7%,-2.8,-71*
O=C(O)CCC(=O)Nc1sc2c(c1C(=O)Nc1cccc3ccccc13)CCCCC2,3,-9,-0.6,1.7%,-3.7,7
CCCn1c(N)c(C(=O)CSc2nnc(C3CC3)n2-c2ccccc2)c(=O)[nH]c1=O,1,6,-0.6,1.0%,-2.1,·
Cc1cccc(C)c1Nc1nnc(SCc2nc3ccccc3c(=O)[nH]2)s1,-16,20,-0.7,?,-1.2,13
Cc1ccc(S(=O)(=O)N2CCN(C(=O)C3CSC4(C)CCC(=O)N34)CC2)cc1C (stereo unspecified),-5,2,0.6,4.1%,-0.7,7
Nc1ccc2ccccc2c1[N+](=O)[O-],3,-14,1.4,-0.3%,0.7,-14
O=S(=O)(Nc1ccc(F)cc1)c1cccc2nsnc12,3,-6,-0.1,2.4%,-1.2,0
COc1ccc(C(=O)c2c3ccc([N+](=O)[O-])cc3[n+]([O-])n2CCCC(N)=O)cc1,-9,3,0.0,-0.3%,?,0
COc1ccc(-c2cc(C(F)(F)F)c3c(=O)n(-c4ccccc4)[nH]c3n2)cc1,1,-1,0.7,·,-2.7,6
CC(=O)c1ccc(CCCC(=O)O)cc1,-11,3,0.5,10%[38.3 µM],-3.3,-1
O=C(Cn1nc(Cc2cccnc2)c2ccccc2c1=O)Nc1cccc(C(F)(F)F)c1,-10,·,1.4,0.9%,·,·
CC1C(=O)NN=C1C(=O)N/N=C/c1ccco1 (stereo unspecified),-9,-4,-0.4,0.4%,1.0,·
Cc1ccc(S(=O)(=O)N2CCCCC2)cc1NC(=O)c1cc(=O)[nH]c2ccccc12,12,-2,-0.7,3.4%,-1.8,·
CC(C)(C)OC(=O)N1CC2Cc3[nH]c(=O)ccc3C(C2)C1 (stereo unspecified),3,2,0.2,0.9%,-0.2,-8
Cc1ccccc1CC(=O)NCCN1CCCCC1,5,11,1.0,-1.9%,-0.4,-2
COc1cccc(CNc2nc3ccc(C)cc3n3cnnc23)c1,12,2,-0.9,40µM*,-9.7,·
CC(=O)c1cccc(NC(=O)c2cc(S(=O)(=O)N3CCCCC3)ccc2N2CCOCC2)c1,1,0,-0.9,3.9%,-1.4,3
COc1ccc(N2CCN(C(=O)Cn3ncc4c3-c3cc(C)ccc3OC4)CC2)cc1,-8,·,0.6,0.3%,·,·
# The listing continues:
SMILES,TRPML1 blocker,Six1-Eya2 inh,TRPML1 ag,PINK1 modulator,D2 ag,CtBP-E1A blk
CCCCn1c(COc2cccc(OC)c2)nc2ccccc21,16,·,2.7,-1.1%,·,·
Cc1ccc(S(=O)(=O)N2CCCC2C(=O)OCC(=O)Nc2ccc3c(c2)OCO3)cc1 (stereo unspecified),13,-7,2.0,0.8%,-0.6,1
COc1cccc(Cn2c(SCC(=O)N(C)c3ccccc3)nc3ccccc32)c1,26,·,0.0,0.2%,·,·
O=C(Nc1nc2ccc(Cl)cc2s1)c1cccc(N2C(=O)CCC2=O)c1,-3,0,-0.3,?,-3.4,-2
COc1ccc(-c2cc(CNC(=O)CN(C)Cc3ccccc3)on2)cc1,2,-6,-0.3,0.7%,4.2,3
O=[N+]([O-])c1ccc(CN2CCCCCC2)s1,-10,-13,-0.2,4.1%,-2.0,-9
COc1ccc(C(=O)/C=C/Nc2ccc([N+](=O)[O-])cc2C)cc1OC,3,-4,6.4,28µM*,-2.4,6
Cc1ccc(NC(=O)CCCc2nnc3n(C)c(=O)c4sccc4n23)cc1C,2,·,3.8,0.2%,·,·
Cc1nc2cc(C(=O)O)ccc2s1,-7,3,0.0,12%[38.3 µM],-0.5,-3
CC(C)OCCCN1CN(S(=O)(=O)c2ccc(Cl)cc2)c2nc3ccccc3nc21,40,-2,1.8,3.1%,4.2,-11
CC1(c2nnc(-c3ccccc3)o2)CC(c2cccc(Cl)c2)=NO1 (stereo unspecified),-12,-1,0.2,2.8%,-1.1,·
Cc1ccc(NS(=O)(=O)Cc2ccccc2)nc1,-4,0,1.1,-0.5%,-0.3,-9
COc1ccc(NC(=O)c2cccs2)cc1O,18,-4,-0.7,2.3%,-0.8,4
O=C(O)c1ccc[n+](Cc2ccc([N+](=O)[O-])cc2)c1,16,7,3.7,1.1%,-2.8,0
COc1ccc(C(=O)Nc2ccc(Cl)cn2)cc1Cl,-14,6,0.9,·,-0.3,3
Cc1ccc(NC(=O)CSCC(=O)NC2CCCCC2)cc1,2,-7,-0.4,-0.5%,-5.9,3
c1ccc(-c2nnc(CSc3ccc4c(c3)OCCO4)o2)cc1,1,5,2.4,-1.2%,1.4,4
O=C(NCc1ccc(F)cc1)C1CCC(CNc2c(N3CCOCC3)c(=O)c2=O)CC1 (stereo unspecified),24,-8,-0.1,-0.5%,-2.4,·
CCc1nc2c(sc3nc4c(cc32)COC(C)(C)C4)c(=O)n1Cc1ccco1,-3,-25,-0.1,15%,-0.2,-12
O=C(CN1CCOCC1)Nc1ccc([N+](=O)[O-])cc1Br,-6,3,1.5,-0.9%,-1.3,·
O=C(c1cnn(C(=O)COc2ccccc2F)c1)c1cc(F)ccc1O,-19,-1,-0.7,2.4%,-3.7,1
COc1ccccc1C(CNC(=O)CN(C)S(=O)(=O)c1ccc(C)cc1)N1CCCC1 (stereo unspecified),13,3,0.4,0.1%,-4.2,2
CCCCNCC#CCOc1cc(C)ccc1C(C)C,19,22,3.5,14%,-8.2,·
CCC/C(O)=C1\C(=O)CC(c2ccccc2)CC1=NCCc1c(C)[nH]c2ccccc12 (stereo unspecified),40,-27,0.8,1.1%,1.2,-24
COC(=O)c1sc(N2CCN(c3ccc(Cl)cc3)CC2)nc1N,-7,?,2.9,2.2%,-22,-25
# Other entries.
SMILES,TRPML1 blocker,Six1-Eya2 inh,TRPML1 ag,PINK1 modulator,D2 ag,CtBP-E1A blk
COc1ccc(C(=O)Nc2cc(C(=O)c3ccccc3)c(C)oc2=O)cc1,-9,-7,-0.2,-1.6%,1.4,-3
CCCCn1nnnc1C(c1cc2ccccc2o1)N1CCN(C/C=C/c2ccccc2)CC1 (stereo unspecified),·,-22,0.1,9.3%,-3.2,-21
CCc1ccc(-c2cc(C)no2)cc1S(=O)(=O)N1CCN(c2ccc(OC)cc2)CC1,-1,?,-0.6,2.0%,-0.3,?
CCn1ccc2cc(S(=O)(=O)N3CCC(C(=O)NCc4ccc(OC)cc4)CC3)ccc21,14,·,2.9,1.2%,·,·
COc1ccc(CCNC(=O)c2ccc3c(Cl)c4c(nc3c2)CCCC4)c(OC)c1,5,·,0.7,0.0%,·,·
CN1CC(=O)N(CC(=O)Nc2ccc(F)cc2)c2ccccc2C1=O,-1,25,-0.2,-1.4%,-2.2,0
COc1ccc(Cn2cnc([N+](=O)[O-])c2)cc1[N+](=O)[O-],-7,-1,-0.3,0.0%,-0.7,5
Cc1ccc(CNc2ncnc3cc(Cl)ccc23)cc1,33,2,1.5,?,4.1,·
O=C(c1cccs1)N1N=C(c2ccccc2)CC1c1ccc(O)cc1 (stereo unspecified),4,-10,2.6,-1.5%,3.8,0
COc1cccc(N2CCN(CC(=O)NC(C)c3ccccc3)CC2)c1 (stereo unspecified),-9,1,0.4,0.8%,1.8,-3
O=C(NCc1ccncc1)c1nc(-c2cccs2)no1,-23,-4,-0.3,1.7%,-5.1,-5
CCn1c(C(C)NC(=O)c2ccc(OC)c(OC)c2)nc2ccccc21 (stereo unspecified),4,-6,0.1,0.6%,-1.9,0
Cc1c(Cl)cccc1NC(=O)N1CCCC1,13,7,0.7,1.9%,-0.6,1
COc1ccc(NC(=O)C(=O)NCCC2CCCCN2S(=O)(=O)c2ccccc2)cc1 (stereo unspecified),0,-6,0.5,5.8%,-0.5,0
CC1CCCCC1NC(=O)CCn1c(=O)oc2ccccc21 (stereo unspecified),-6,4,-0.2,·,-0.6,9
O=C(/C=C/c1ccccc1[N+](=O)[O-])NCc1ccccc1Cl,0,0,1.0,0.5%,1.2,-6
O=C(O)c1cc2ccccc2n1-c1ccccc1,-12,3,3.4,-1.0%,0.2,0
O=c1[nH]c(CSc2nnc(Nc3ccccc3)s2)nc2ccccc12,57,1,0.7,12%,-0.1,1
S=c1[nH]nc(CSCc2ccccc2Cl)n1C1CCCCC1,46,-15,1.6,-1.6%,-4.2,-19
O=C(CN(Cc1ccco1)S(=O)(=O)c1ccccc1)N/N=C/c1ccccc1C(=O)O,-5,-1,1.9,1.5%,-2.5,3
COCCNC(=S)NC(=O)c1ccc(C(C)(C)C)cc1,-12,-7,6.5,0.4%,-4.2,·
COc1ccc(Cn2c(=O)c3ccccc3n3c(-c4ccc(C)cc4)nnc23)cc1,-7,·,-1.2,-0.4%,·,·
O=C(O)COc1ccccc1/C=C1\SC(=O)N(Cc2ccc(F)cc2)C1=O,0,5,0.3,1.0%,-2.2,0
CCOC(=O)C1=CN(Cc2cccc(I)c2)S(=O)(=O)N(C)C1C (stereo unspecified),21,12,0.0,2.2%,0.8,27
COc1ccc(/C=C/C(=O)NCCCn2ccnc2)cc1,-2,22,1.8,-2.5%,0.2,34
CS(=O)(=O)N(CC(=O)NCc1ccc2c(c1)OCO2)Cc1ccccc1,16,2,1.4,-1.9%,0.5,6
Cc1ccc(-n2nc(C)c3c2OC(N)=C(C#N)C3c2cccs2)cc1 (stereo unspecified),-2,-4,-0.4,-0.9%,-2.2,6
